RGS16-Gao – modulates binding between human RGS16 and Galphao; O15492+P09471; binding response (% of control), % at 10 µM; actives 0.38% (n = 220,000); bead-based flow cytometry RGS16-Galphao binding, fluorescence; actives lie on both sides;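 active = below 25% or above 175%, edge rows of some plates excepted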;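 also: Galphao activated by GDP with aluminum fluoride before binding; 100% = wells without compound and 0% = beads without RGS; some results beyond the cut were filed as inactive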
Target sequence (O15492 whole entry, looked up): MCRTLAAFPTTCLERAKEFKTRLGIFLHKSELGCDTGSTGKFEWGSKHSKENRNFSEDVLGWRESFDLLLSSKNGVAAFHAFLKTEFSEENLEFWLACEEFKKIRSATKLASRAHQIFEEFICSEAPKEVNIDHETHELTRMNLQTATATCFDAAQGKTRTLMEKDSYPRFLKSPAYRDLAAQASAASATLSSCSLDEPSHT
Target sequence (P09471 whole entry, looked up): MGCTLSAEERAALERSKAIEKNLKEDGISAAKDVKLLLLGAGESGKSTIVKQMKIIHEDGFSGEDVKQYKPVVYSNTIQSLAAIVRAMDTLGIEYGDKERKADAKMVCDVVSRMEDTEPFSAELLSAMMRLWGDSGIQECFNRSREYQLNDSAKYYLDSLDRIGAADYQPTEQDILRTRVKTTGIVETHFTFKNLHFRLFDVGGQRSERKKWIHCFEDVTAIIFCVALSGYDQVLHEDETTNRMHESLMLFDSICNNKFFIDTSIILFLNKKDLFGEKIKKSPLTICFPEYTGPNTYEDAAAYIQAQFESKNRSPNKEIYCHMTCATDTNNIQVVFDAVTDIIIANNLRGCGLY
INS promoter inh – TRM-6 insulin promoter activity inhibition | AID 1273 | actives 0.9% (n = 130,000) | inhibition, % at 2 µM | TRM-6 cells (human fetal islet line), insulin promoter-eGFP reporter, imaging; reporter expression induced with tamoxifen;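 active = inhibition above the mean plus 3 SD, with well images judged a real hit on visual review, cut at about 60% in these data, passing the limit was not always enough; inconclusive = inhibition over the cutoff but images rejected on review; inactive = inhibition not above the cutoff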
PKD1 kinase inh – inhibitors of human PKD1 kinase. PKD1 kinase fluorescence polarization assay. actives 0.056% (n = 200,000). inhibition, %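 (about 10 µM by stock and volumes)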;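 active = inhibition of 50% or more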;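 also: controls were vehicle for no effect and a reference inhibitor for full effect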
GALR2 agonist – GALR2 (human) receptor agonism; O43603; GALR2-expressing cells, agonist activation read-out; activation, %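 (tested at 5 µM)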; actives 0.48% (n = 140,000); AID 803;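 active = above mean plus 3 SD of all compounds, about 5% in these data, not always enough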;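 also: 0% = vehicle buffer wells and 100% = reference agonist at full effect; tested in CHO reporter cells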
Target sequence (O43603 whole entry, looked up): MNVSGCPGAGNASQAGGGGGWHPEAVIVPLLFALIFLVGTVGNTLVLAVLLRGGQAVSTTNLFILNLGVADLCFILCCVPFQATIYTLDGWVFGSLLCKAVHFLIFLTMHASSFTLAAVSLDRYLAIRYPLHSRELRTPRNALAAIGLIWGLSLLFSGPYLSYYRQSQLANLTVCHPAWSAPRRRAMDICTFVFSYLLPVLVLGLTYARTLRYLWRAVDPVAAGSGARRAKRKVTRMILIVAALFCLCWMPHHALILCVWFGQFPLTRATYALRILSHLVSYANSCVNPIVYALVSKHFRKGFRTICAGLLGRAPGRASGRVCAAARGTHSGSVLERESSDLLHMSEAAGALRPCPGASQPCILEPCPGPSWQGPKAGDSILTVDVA
HSV augment – increases HSV replication in cells | HSV replication augmentation in cells, fold increase | maximum fold increase | actives 0.005% (n = 220,000) | AID 1956;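 active = peak rise of 1.5-fold or more in the series; inconclusive = self-fluorescent or not available for retest; tested in PC3 cells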;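 also: first round at 10 µM; read as green reporter fluorescence; hits show the peak of a series up to 25 µM; 1 = signal of infected wells without compound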
INS promoter inh cell count – also measured in INS promoter inh; calls as there; normalized cell count, %; measured here: cell count, toxicity; reference of the scale not given here;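 cells exposed to compound for 48 h; stained nuclei by imaging scaled within each plate; lower means fewer cells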
HSV augment primary fold – second read-out of HSV augment, no call of its own (marks repeat the call); fold increase; compound at 10 µM; measured here: primary screen fold increase 10 uM; tested in PC3 cells;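 GFP signal in the first replicate; 1 = infected wells without compound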
* marks the source's active call; other numbers are inactive results; i = inactive; ? = inconclusive; . = no result given. No enrichment for hits; overall some 1.3% were active at least once.

SMILES	RGS16-Gao	INS promoter inh	INS promoter inh cell count	PKD1 kinase inh	GALR2 agonist	HSV augment	HSV augment primary fold
COc1ccccc1C(=O)n1nc(-c2ccc(Cl)cc2)nc1N	103	12	58	-1	-1.8	.	.
CCOC(=O)C(=O)NNc1ccc(Cl)cc1	99	0	85	-1	.	i	0.99
Cc1c(N2C(=O)/C(=C\C3CC=CCC3)SC2=S)c(=O)n(-c2ccccc2)n1C (stereo not drawn)	90	31	126	-3	.	i	1
O=C(c1ccco1)N1CCN(c2ncnc3c2[nH]c2ccc(Cl)cc23)CC1	93	36	110	-13	-1.8	i	0.82
N#CC1(c2ccccc2)CCCN1C(=O)c1ccccc1Cl (stereo not drawn)	98	25	89	-3	-0.3	i	0.99
CC(On1c(-c2ccccc2)nc2ccc(Cl)cc21)C(=O)O (stereo not drawn)	98	-41	138	6	.	i	0.97
CC(=O)n1cc([C@@H]2C=C(C(=O)NCc3ccccc3)O[C@H](OCc3ccc(CO)cc3)C2)c2ccccc21	102	.	.	.	.	i	0.9
CC(NC(=O)COC(=O)c1ccccc1Nc1ccccc1)c1ccccc1 (stereo not drawn)	101	.	.	8	0.8	i	0.92
CCC(C)NCCCCOc1ccc(C)cc1[N+](=O)[O-] (stereo not drawn)	104	-17	85	11	-1.9	i	0.89
Cc1ccc(S(=O)(=O)NCc2cn3ccsc3n2)c(C)c1	111	.	.	-6	-0.9	i	0.99
Cc1ccc(NC(=O)N(CCC(=O)O)Cc2ccccc2)cc1	106	.	.	.	.	i	1
COc1cc2c(c(OC)c1OC)C(=O)CC2	105	.	.	.	.	i	1
CC(=O)Oc1ccc(OC(C)=O)c(SCCCCCN2CCOCC2)c1	89	-14	102	-2	-1.4	.	.
C=CCOc1ccc(/C(O)=C2/C(=O)C(=O)N(CCN3CCOCC3)C2c2ccc(C)cc2)cc1 (stereo not drawn)	99	27	58	-11	-3.6	i	0.8
CCOc1ccc(NC(=O)CSc2nc3ccccc3c(=O)n2CCCC(=O)N2CCCC2)cc1	96	47	122	-1	-0.6	i	0.82
Cc1[nH]nc(SCC(=O)NCC(C)C)c1[N+](=O)[O-]	99	25	114	-5	.	i	0.79
Cc1c(C=O)c(C=O)c(C)n1Cc1ccccc1	97	-7	48	-1	-1.9	i	0.7
COc1ccc(Cc2nc3ccccc3n2CC(=O)N/N=C/c2ccccc2)cc1OC	105	.	.	-2	-0.3	i	1.1
CN1CCCN(C(=O)C2CCC(C(=O)N3CCCN(C)CC3)CC2)CC1 (stereo not drawn)	100	.	.	0	.	i	1
O=C(CCSCc1ccc(Cl)cc1)NCc1cccs1	100	-33	82	-2	.	i	0.94
O=C(c1ccc2c(=O)n3c(nc2c1)CCCCC3)N1CCN(C(c2ccccc2)c2ccccc2)CC1	98	-41	79	7	-0.9	i	0.6
CC(C(=O)NCC1CCCO1)N1C(=O)C2C3CC(C(Br)C3Br)C2C1=O (stereo not drawn)	103	.	.	.	.	i	1.1
CCN(CC)S(=O)(=O)c1cccc(-c2nnc(SCC#N)n2Cc2ccccc2)c1	100	.	.	-5	-0.2	i	1.1
S=C(c1ccc(N2CCCC2)c(Br)c1)N1CCCCC1	103	.	.	-5	.	i	0.89
COC(=O)c1sccc1NC(=O)CSc1ccccc1NS(=O)(=O)c1cc(Cl)ccc1Cl	101	.	.	-7	-0.1	i	0.74

Further results
SMILES	RGS16-Gao	INS promoter inh	INS promoter inh cell count	PKD1 kinase inh	GALR2 agonist	HSV augment	HSV augment primary fold
COc1ccc(CCNC(=O)C23CCC(C)(C(=O)O2)C3(C)C)cc1OC (stereo not drawn)	79	-20	76	-2	.	i	0.98
O=C1CN(C(=O)COC(=O)CNS(=O)(=O)c2ccccc2)c2ccccc2N1	97	.	.	3	.	i	0.87
COc1ccc(NC(=S)N2CCN(Cc3cccc(F)c3)CC2)c(OC)c1	109	-45	138	3	.	i	1.1
COc1ccc(C(=O)NC2CCN(C(=S)Nc3cc(C)ccc3C)CC2)cc1	205	8	116	-17	-1.6	i	0.88
Nc1nc(Nc2cccc(Cl)c2)n[nH]1	103	.	.	.	.	i	0.98
Cc1cc(COc2ccccc2O)on1	112	16	202	1	-2.1	i	0.96
Cc1nc(N2CCN(Cc3ccccc3)CC2)[nH]c(=O)c1C	.	-54	121	0	-1.3	i	0.84
Cn1nc(C(=O)N2CCN(S(=O)(=O)c3ccccc3)CC2)c2ccccc2c1=O	94	9	91	-9	-2.0	i	1
O=C(CN1CCN(S(=O)(=O)c2ccc(Br)cc2)CC1)N/N=C/c1cc([N+](=O)[O-])ccc1Cl	105	.	.	-2	-0.6	.	.
Cc1ccc(Oc2nc(-c3cccnc3)nc3ccccc23)c([N+](=O)[O-])n1	26	22	71	-1	.	i	0.92
O=C(O)c1ccc(N2C(=O)CC(SC(=Nc3ccccc3)Nc3ccccc3)C2=O)cc1 (stereo not drawn)	112	-36	107	-5	-0.4	i	0.92
COc1ccc(C(=O)N(CN2CCCC2=O)c2ccccc2OC)cc1OC	100	-46	109	-2	0.3	i	0.79
Cc1[nH]c2ccc(-c3n[nH]c(=S)n3-c3ccccc3)cc2c1C	94	9	64	3	-1.8	i	0.84
CCN(CC)c1ccc(NC(=O)COC(=O)CSc2ccc(Br)cc2C)cc1	102	0	94	-7	-1.6	i	1
Cc1cc(NC(=O)CCSc2nc(-c3ccco3)cc(C(F)(F)F)n2)no1	102	-464	61	-7	-2.5	i	1
COc1c(F)c(F)c(C(=O)Nc2ccc(NC(=O)Cc3ccccc3)cc2)c(F)c1F	100	.	.	-5	.	i	0.83
COc1ccc(NC(=O)c2cc(OC)c(OC)c(OC)c2)cn1	90	-257	63	-8	-4.0	i	1.2
C#Cc1ccc([C@@H]2C=C(C(=O)NCc3ccccc3)O[C@H](OCc3ccc(CO)cc3)C2)cc1	99	.	.	5	.	.	.
Cc1ccc(S(=O)(=O)N(C)C)cc1NC(=O)COC(=O)c1ccc2c(c1)NC(=O)CS2	101	.	.	.	.	i	0.9
CCCCn1nc2cc(C(=O)NCc3ccc4c(c3)OCO4)ccc2c1OCC	105	-11	76	-9	-0.7	i	0.81
O=c1c(O)cccc2cc(O)c(O)c(O)c12	78	.	.	.	.	?	.
CCN1CCN(C(=S)c2ccc(OCC(=O)Nc3ccc(OC)cc3)cc2)CC1	.	-123	112	6	-1.7	i	1
O=C(CSc1nc(-c2ccccc2)cs1)Nc1ccccc1[N+](=O)[O-]	100	.	.	-8	-1.2	i	0.87
Fc1ccccc1Cc1noc(CN2CCCC(CN3CCOCC3)C2)n1 (stereo not drawn)	103	.	.	2	.	i	1.1
CCC1(C)CC(c2csc(N)n2)CCO1 (stereo not drawn)	94	-359	51	0	-1.3	i	1.1

An excerpt from above, limited to RGS16-Gao, PKD1 kinase inh and HSV augment.
smiles	RGS16-Gao	PKD1 kinase inh	HSV augment
C#Cc1ccc([C@@H]2C=C(C(=O)NCc3ccccc3)O[C@H](OCc3ccc(CO)cc3)C2)cc1	99	5	.
CCN1CCN(C(=S)c2ccc(OCC(=O)Nc3ccc(OC)cc3)cc2)CC1	.	6	i
CCCCn1nc2cc(C(=O)NCc3ccc4c(c3)OCO4)ccc2c1OCC	105	-9	i
COc1ccc(NC(=S)N2CCN(Cc3cccc(F)c3)CC2)c(OC)c1	109	3	i

More structures:
SMILES	RGS16-Gao	INS promoter inh	INS promoter inh cell count	PKD1 kinase inh	GALR2 agonist	HSV augment	HSV augment primary fold
C#CCNC(=O)c1cccn1-c1ncc(C(F)(F)F)cc1Cl	99	.	.	-2	.	i	1.1
CCCc1n[nH]c(=S)n1Cc1ccco1	97	.	.	.	.	i	0.74
COc1ccc(-c2cc(C(=O)N3CC4(C)CC3CC(C)(C)C4)no2)cc1OC (stereo not drawn)	96	.	.	5	-0.5	i	0.97
CC(=O)Nc1ccc(/C(C)=N/NC(=O)C2CC2c2ccccc2)cc1 (stereo not drawn)	108	17	125	4	-0.1	i	0.96
COc1ccc(Cc2nnc(Nc3ccccc3OC)[nH]c2=O)cc1	90	.	.	5	.	i	1.1
O=C(CSc1n[nH]c(=O)n1C1CC1)NCc1ccccc1Cl	107	.	.	-5	.	i	0.83
O=C(O)c1ccc(NS(=O)(=O)c2ccc3c(c2)OCCCO3)cc1	102	.	.	-1	.	i	0.98
COc1cc(/C=N/NC(=O)CCn2nc(C)cc2C)ccc1O	95	.	.	.	.	i	0.81
CCc1nnc(NC(=O)CSc2nnc(-c3ccoc3C)n2-c2ccc(C)cc2)s1	100	.	.	1	-0.4	.	.
COc1ccc(C2(c3ccc(OC)cc3)NC(=O)N(Cn3nnc4ccccc4c3=O)C2=O)cc1	100	0	131	3	-1.3	i	0.83
CC(C)(C)OC(=O)N1CCC[C@H]1C(=O)N/N=C/c1cccc2nccnc12	105	.	.	.	.	i	1.1
Cc1ccc(-n2c(N)c(C(=O)NCc3cccnc3)sc2=S)cc1	98	36	34	11	-1.2	i	0.98
N#C/C(=C\c1ccccc1)C(=O)Nc1cc(S(=O)(=O)N2CCOCC2)ccc1N1CCCC1	98	.	.	-5	0.5	i	0.99
CCn1c(/C=C/c2ccc([N+](=O)[O-])o2)nc2ccccc2c1=O	95	-65	113	2	-2.0	i	0.8
CCOC(=O)C1CCC(CNCc2ccccc2C)CC1 (stereo not drawn)	103	.	.	-7	.	i	1
CCOC(=O)C(NC(=O)Nc1ccc(F)cc1F)(Oc1ccccc1)C(F)(F)F (stereo not drawn)	107	20	91	-2	-0.4	i	0.77
Cn1c(=O)[nH]c(=O)c2c1nc(NC1CCCCC1)n2CCO	96	.	.	.	.	i	0.87
CCc1ccc(C(=O)NCc2cccs2)s1	101	-19	104	-5	-1.3	i	1
CCNC(=O)NCCc1c[nH]c2ccc(Cl)cc12	105	-9	81	-1	-0.3	i	0.83
N#Cc1c(N)nc2c3c(sc(=N)c2c1N)NC(=O)CC3c1ccccc1 (stereo not drawn)	97	-17	134	-5	-0.9	i	1
Cc1cc(NC(=O)c2cnc3ccccn3c2=O)no1	.	8	135	-9	-1.3	.	.
C=C(C)CNC(=S)NNC(=O)CCn1c2ccccc2c2ccccc21	108	-72	64	-5	-0.8	i	1.1
Cn1c(SCc2nc3ccccc3s2)nnc1-c1cccs1	94	-4	46	-10	-2.1	i	1.1
Oc1ccc(-c2csc(-c3c[nH]c4ccccc34)n2)c(O)c1	107	33	83	-1	-2.2	i	0.74
CCOc1ccc(CCNC(=O)C2CCN(S(=O)(=O)N3CCOCC3)CC2)cc1OCC	102	-21	126	-13	-2.6	i	0.94

Next section.
SMILES	RGS16-Gao	INS promoter inh	INS promoter inh cell count	PKD1 kinase inh	GALR2 agonist	HSV augment	HSV augment primary fold
O=C(COc1ccc(F)cc1)N(c1ccccn1)C1CCCCC1	113	-56	40	-11	-1.1	i	1.2
COC(=O)N/N=C(\C)c1ccc(Br)cc1	105	30	166	-3	-0.8	i	1
Cc1ccc(S(=O)(=O)Nc2cc(S(=O)(=O)N3CCCCC3)ccc2N2CCOCC2)cc1	106	-18	29	-4	.	i	1
O/N=C1\CCCc2c1nc(-c1ccccc1F)n2O	106	.	.	.	.	i	0.91
CC(C)(C)c1nc(SCC(=O)Nc2ccc(N3CCOCC3)cc2)c2ccccc2n1	100	-77	43	-1	-0.1	i	0.91
CCC(C)NC(=O)CN1C(=O)CC(C)(C)S(=O)(=O)c2ccccc21 (stereo not drawn)	111	.	.	-3	-2.8	i	1.1
Cc1cnc(CN(C)Cc2nc(Cc3cccc(C(F)(F)F)c3)no2)[nH]1	106	.	.	6	.	i	0.98
Cc1cc(C)cc(NC(=O)c2cccc(NC(=O)C3C4CC5OC(=O)C3C5C4)c2)c1 (stereo not drawn)	87	-77	86	-3	-0.1	i	0.96
CC#C[C@]1(O)CC[C@H]2[C@@H]3CCC4=CC(=O)CCC4=C3[C@@H](c3ccc(N(C)C)cc3)C[C@@]21C	103	-5	138	-6	1.8	i	0.89
CC(C)(C)N(Cc1ccccc1)C(=O)CCc1ccccc1	97	.	.	-12	.	i	1.1
Cc1ccccc1NC1=NC(=S)N(CC(N)=O)C12CCOC(C)(C)C2 (stereo not drawn)	104	.	.	.	.	i	1
COc1cc(C(C)=O)ccc1COc1ccc(C(=O)O)cc1OC	105	.	.	.	.	i	1
CNC(=O)c1c(NC(=O)c2nc3ccccc3s2)sc2c1CCC2	99	.	.	6	-2.1	i	1
C=CCn1c(SCC(=O)O)nnc1-c1cccs1	106	33	123	-3	-0.6	i	0.7
COC(=O)c1ccsc1NC(=O)C1COc2ccccc2O1 (stereo not drawn)	105	.	.	-13	-2.9	i	1.1

High-throughput results deposited in PubChem by several laboratories.
